Source: PubChem
TRPML1 blocker: inhibitors of human TRPML1 channel | Q9GZU1 | TRPML1-inducible cells, Ca2+ dye fluorescence, FDSS; hits give low values; inhibition of EC80 agonist-evoked calcium signal | activity change, negative = inhibition, % (test concentration not listed) | 390,000 compounds, 0.02% hits | AID 624415; in the data active means activity change below about -50%; inconclusive means about -30% to -50%; inactive means above about -30%;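 further: stimulus is agonist 54-4 at its EC80 concentration; on the % scale 0 is the no-effect control and ±100 the full control effect; compound concentration not given in the record; the text of the record puts the active cut at -80%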
Target sequence (Q9GZU1 whole entry, looked up): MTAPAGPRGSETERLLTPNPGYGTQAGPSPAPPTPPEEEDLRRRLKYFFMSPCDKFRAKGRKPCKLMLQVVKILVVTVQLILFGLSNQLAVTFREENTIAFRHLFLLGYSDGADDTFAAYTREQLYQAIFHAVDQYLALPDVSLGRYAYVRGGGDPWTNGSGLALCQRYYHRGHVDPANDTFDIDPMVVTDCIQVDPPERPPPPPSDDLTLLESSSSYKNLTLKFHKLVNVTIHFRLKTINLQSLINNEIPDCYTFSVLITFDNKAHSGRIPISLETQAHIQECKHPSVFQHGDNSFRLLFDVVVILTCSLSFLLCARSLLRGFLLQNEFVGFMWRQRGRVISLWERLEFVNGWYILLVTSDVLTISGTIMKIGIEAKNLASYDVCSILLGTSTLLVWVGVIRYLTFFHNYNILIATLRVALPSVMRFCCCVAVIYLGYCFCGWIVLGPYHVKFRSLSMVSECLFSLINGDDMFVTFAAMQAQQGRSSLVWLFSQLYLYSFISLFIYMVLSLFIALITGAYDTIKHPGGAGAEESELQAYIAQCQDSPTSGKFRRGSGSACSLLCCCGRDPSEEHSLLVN
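TRPML1-DL cells, Tet-induced overnight (~16 h, 37 °C) at 1,500 cells/well, were loaded with Ca8 no-wash dye plus quencher for 45-90 min at room temperature. Compounds were pinned during FDSS kinetic reading; agonist 54-4 at EC80 (4 uM final) then added.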
TRPML1 agonist: human mucolipin-1 channel agonism | TRPML1-expressing cells, Ca2+ dye fluorescence, FDSS; host cell line not named in the record; reference of the full effect not given here | activation, % (concentration not given with the values) | 410,000 compounds, 0.12% hits | AID 624414; in the data active = activation above about 50%; inconclusive = about 30% to 50%; inactive = below about 30%; further: 0% is about no effect; the text of the record puts the active cut at 80%
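In this qHTS format, compounds were pin-transferred onto Ca8-dye-loaded TRPML1-DL cells induced with Tet overnight, and intracellular Ca2+ fluorescence was recorded kinetically for 110 s after a 10 s baseline. A subsequent 4uM final 54-4 (EC80) addition followed by a second 110 s read served as the antagonist phase.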
PINK1 modulator: PINK1 expression modulation. Potency, µM (titrated, usually from 76.6 µM), for inactives: at the highest dose activation (PINK1 increase), usual class: activators. PINK1 immunofluorescence, high-content cytometry, 24 h. 410,000 compounds, 0.2% hits; active = well fitted activation curve with a large enough effect; inconclusive = small, poorly fitted or top-dose-only effect; inactive = flat fitted curve, though single readings scatter; cell line not stated here;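 further: potency means the concentration at half of the fitted maximal effect; % of control where 0% means no effect; nearly all actives have a fitted effect of over 65% in size; a mitochondrial uncoupler was the plate control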
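PINK1 protein, normally rapidly degraded, was detected by immunofluorescence after 24 hour compound treatment of a stable cell line. Titration data (5 concentrations) came from laser-scanning cytometry, with CCCP-treated wells as controls.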
Six1-Eya2 inh: blocks human Six1 binding to Eya2; Q15475+O00167; AlphaScreen GST-Six1/His-Eya2 binding, biochemical; hits give low values; control for the full effect not named in the record; activity change, % (concentration not given with the values); 360,000 compounds, 0.56% hits; AID 651725; in the data active = activity change below about -65%; inconclusive = about -30% to -65%; inactive = above about -30%; further: on the % scale 0 is the no-effect control and ±100 the full control effect
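AlphaScreen luminescence read after one hour at 37 °C in darkness. Pin-transferred compounds met GST-Six1 and His-Eya2 protein (5X stock 250 nM/500 nM) plus glutathione donor and Ni-chelate acceptor beads (5X, 50 ug/mL).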
D2 potentiator: positive allosteric modulators of human D2 dopamine receptor. 360,000 compounds, 0.23% hits. AID 624464. potentiation, % (concentration not given with the values). P14416. DiscoveRx D2 beta-arrestin cells, luminescence, 90 min; 100% = 57 uM dopamine signal; active = potentiation of 50% or more; inconclusive = 30% to 50%; inactive = 30% or less;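 further: tested on top of an EC20 dose of dopamine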
Target sequence (P14416 whole entry, looked up): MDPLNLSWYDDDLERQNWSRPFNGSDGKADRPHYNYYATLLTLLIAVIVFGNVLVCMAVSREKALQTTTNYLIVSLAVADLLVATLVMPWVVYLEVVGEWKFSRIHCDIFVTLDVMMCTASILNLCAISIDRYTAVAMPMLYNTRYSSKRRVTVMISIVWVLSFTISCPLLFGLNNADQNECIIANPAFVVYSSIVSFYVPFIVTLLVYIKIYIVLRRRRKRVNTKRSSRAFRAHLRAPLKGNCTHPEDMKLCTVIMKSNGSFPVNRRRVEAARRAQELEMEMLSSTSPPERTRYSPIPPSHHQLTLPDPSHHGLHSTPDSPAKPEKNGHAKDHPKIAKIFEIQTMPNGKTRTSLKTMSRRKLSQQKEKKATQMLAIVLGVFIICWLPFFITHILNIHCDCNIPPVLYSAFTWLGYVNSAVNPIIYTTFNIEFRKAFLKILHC
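D2 cells co-treated with compound plus 50 nM dopamine (EC20) for 90 min at 37 deg C to detect potentiation. Beta-arrestin recruitment was read as enzyme-fragment luminescence after 1 h at ambient temperature. Full response was set by 57 uM dopamine.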
D2 agonist: human D2 receptor agonism in beta-arrestin assay; P14416; DiscoveRx PathHunter D2 beta-arrestin, luminescence, 90 min; 100% = 57 uM dopamine signal; activation, % (no concentration beside the values); 360,000 compounds, 0.084% hits; AID 624465; in the data active = activation above about 40%; inconclusive = about 15% to 40%; inactive = below about 15%; further: compound concentration not given in the record; the text of the record calls up to 30% inactive
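Agonist mode: compounds alone added to overnight-plated D2 PathHunter cells for 90 min at 37 C, with 57 uM final dopamine (EC100) defining full response. Beta-arrestin recruitment detected by chemiluminescent reagent, read after 1 h at ambient temperature.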
* marks the source's active call; other numbers are inactive results; u = inconclusive; x = no result given; & = joins results of further samples; [ ] = another dose, or the depositor's remark.

SMILES	TRPML1 blocker	TRPML1 agonist	PINK1 modulator	Six1-Eya2 inh	D2 potentiator	D2 agonist
O=C(O)C1CCCCC1C(=O)Nc1cccc(Br)c1 (stereo not given)	-3	-0.6	0.8%	-30	-4	-1.3
CCOc1ccc(CCNC(=O)C(C)N2C(=O)CC(C)(C)Sc3ccccc32)cc1 (stereo not given)	x	x	0.0%	3	-5	-3.3
Cc1ccccc1-n1c(SCC(=O)N(C)C2CCS(=O)(=O)C2)nc2ccccc2c1=O (stereo not given)	11	0.4	4.3%	5	-4	-0.2
N/C(=N/O)c1nc(N2CCCC2)nc(N2CCCC2)n1	-14	2.5	0.6%	0	-20	-1.6
Cc1cccc(NC(=O)Nc2ccc3c(c2)CCC3)c1	21	0.0	2.2%	1	-10	2.3
CCOc1cc(C2C(C#N)=C(N)OC3CCCC(=O)C32)ccc1OCCN1CCOCC1 (stereo not given)	-7	-0.7	-0.4%	7	-10	-12
COc1ccc(CC(=O)OCC(=O)Nc2ccc(N3CCOCC3)cc2)cc1	-10	-0.8	-0.2%	-7	-7	-3.2
N#Cc1nc(-c2ccc(OCc3ccccc3)cc2)oc1N1CCOCC1	-1	-0.2	u	-2	-4	-0.1
CCOc1cc(C(=O)N(CC)CC(=O)Nc2ccc3c(c2)OCCO3)ccc1OC	13	-0.3	-1.5%	-4	-4	-1.1
O=C(COC(=O)C12CC3CC(CC(C3)C1)C2)Nc1ccc([N+](=O)[O-])cc1Br	20	-0.3	6.0%	-1	10	-0.1
COc1ccccc1N(C(C)=O)C1SC(=O)N(c2ccccc2)C1=O (stereo not given)	6	0.1	-1.3%	-3	-27	-4.1
Cc1noc(C)c1C(=O)N1CCCC(C(=O)c2cccc(C(F)(F)F)c2)C1 (stereo not given)	19	0.2	6.2%	8	3	-4.1
Cc1nn(-c2ccccc2)c(C)c1NC(=O)c1ccc(S(=O)(=O)N2CCCC2)cc1	11	0.3	-0.3%[38.3 µM]	2	0	1.0
Oc1ccc(Cn2ccnc2)c2cccnc12	14	0.0	-1.2%	-83*	-8	2.5
CCCc1ccc(S(=O)(=O)NCC2CCCN2CC)cc1 (stereo not given)	-4	1.2	2.0%	-4	-22	-1.4

A different layout for some results above.
| Molecule | TRPML1 blocker | TRPML1 agonist | PINK1 modulator | Six1-Eya2 inh | D2 potentiator | D2 agonist |
| --- | --- | --- | --- | --- | --- | --- |
| O=C(O)C1CCCCC1C(=O)Nc1cccc(Br)c1 (stereo not given) | -3 | -0.6 | 0.8% | -30 | -4 | -1.3 |
| CCOc1ccc(CCNC(=O)C(C)N2C(=O)CC(C)(C)Sc3ccccc32)cc1 (stereo not given) | x | x | 0.0% | 3 | -5 | -3.3 |
| Cc1ccccc1-n1c(SCC(=O)N(C)C2CCS(=O)(=O)C2)nc2ccccc2c1=O (stereo not given) | 11 | 0.4 | 4.3% | 5 | -4 | -0.2 |
| N/C(=N/O)c1nc(N2CCCC2)nc(N2CCCC2)n1 | -14 | 2.5 | 0.6% | 0 | -20 | -1.6 |
| Cc1cccc(NC(=O)Nc2ccc3c(c2)CCC3)c1 | 21 | 0.0 | 2.2% | 1 | -10 | 2.3 |
| CCOc1cc(C2C(C#N)=C(N)OC3CCCC(=O)C32)ccc1OCCN1CCOCC1 (stereo not given) | -7 | -0.7 | -0.4% | 7 | -10 | -12 |
| COc1ccc(CC(=O)OCC(=O)Nc2ccc(N3CCOCC3)cc2)cc1 | -10 | -0.8 | -0.2% | -7 | -7 | -3.2 |
| N#Cc1nc(-c2ccc(OCc3ccccc3)cc2)oc1N1CCOCC1 | -1 | -0.2 | u | -2 | -4 | -0.1 |
| CCOc1cc(C(=O)N(CC)CC(=O)Nc2ccc3c(c2)OCCO3)ccc1OC | 13 | -0.3 | -1.5% | -4 | -4 | -1.1 |
| O=C(COC(=O)C12CC3CC(CC(C3)C1)C2)Nc1ccc([N+](=O)[O-])cc1Br | 20 | -0.3 | 6.0% | -1 | 10 | -0.1 |

Carrying on:
SMILES	TRPML1 blocker	TRPML1 agonist	PINK1 modulator	Six1-Eya2 inh	D2 potentiator	D2 agonist
O=C(N/N=C/c1cccc2ccccc12)c1n[nH]c2c1CCCC2	18	-0.2	12%	5	7	0.1
Cc1ccc(S(=O)(=O)c2c(C)cc(C)nc2Cl)cc1	-17	-1.7	2.3%	8	6	-0.5
CN1CCC(=NNc2ncnc3sc4c(c23)CCCC4)CC1	0	0.4	-0.5%	-16	-10	-0.7
Cc1ccccc1NC(=O)NC1(C(=O)N2CCC(O)CC2)CCCCC1	5	0.6	-0.3%	4	-3	-2.5
CCOc1ccc2[nH]c(=O)c(CN(Cc3ccco3)Cc3nnnn3Cc3ccccc3)cc2c1	5	4.0	-2.9%[38.3 µM]	-2	-16	0.2
CC1CCN(S(=O)(=O)c2ccc(C(=O)OC(C)C(=O)N(C)C3CCCCC3)cc2)CC1 (stereo not given)	20	-0.1	2.5%	10	2	-2.9
CCC1COCCS(=O)(=O)N1Cc1ccccc1F (stereo not given)	87	-0.2&-0.6	-0.2%	19	-2	-6.4
Cc1cc([N+](=O)[O-])nn1CC(=O)NNC(=S)Nc1ccc(Cl)cc1	-8	-0.6	10.0%[38.3 µM]	0	-18	-3.9
Cc1onc(-c2c(F)cccc2Cl)c1C(=O)NC(=S)NC1CCS(=O)(=O)C1 (stereo not given)	1	-0.8	-1.8%	25	-19	-4.2
CCOC(=O)C1=C(COC(=O)/C=C/c2cccc(F)c2)NC(=O)NC1C (stereo not given)	-8	1.7	6.8%	10	-3	1.4
Cc1ccc(NC(=O)Cn2c(=O)n(CCCCCC(=O)NCc3ccc(F)cc3)c(=O)c3sccc32)c(C)c1	-2	2.3	1.1%	x	x	x
C[C@@]12CC(=O)NC1N(C(=O)c1cccc(C(F)(F)F)c1)C(c1ccccc1OC(=O)c1cccc(C(F)(F)F)c1)C2 (stereo not given in full)	-9	0.8	1.4%	-6	3	-1.5
Cc1ccc(N2C(=O)N(CC(=O)Nc3cc(C)cc(C)c3)C(=O)C2C)cc1 (stereo not given)	-5	2.3	0.9%	-1	-6	-0.9
Cc1ccccc1NC(=O)Cc1nc(COC(=O)Cc2c(F)cccc2Cl)cs1	21	2.7	0.0%	0	3	-2.7
Cc1ccc(S(=O)(=O)NCc2ccncc2)c(C)c1C	28	0.3	1.7%	-5	-8	-6.4
O=C(NCC(c1ccco1)N1CCc2ccccc2C1)c1ccccc1Br (stereo not given)	1	-0.2	0.7%	-2	-3	-2.8
C1CCCCCC2(CCCCC1)OCC(CN1CCOCC1)O2 (stereo not given)	31	-0.2	10%	-11	-22	-6.0
Cn1c(=O)c2ccccc2n(CC(=O)NCCC2=CCCCC2)c1=O	-1	0.9	1.2%	-6	-3	2.2
Nc1nc(SCc2nc3scc(-c4cccs4)c3c(=O)[nH]2)n[nH]1	16	0.4	1.1%	-6	-6	1.8
COc1ccc(OCC(=O)NNC(=O)c2cccc(O)c2)cc1	-18	1.9	1.8%	0	-1	-3.0
Cc1cc(NCC(c2ccccc2)c2ccccc2)n2ncnc2n1	4	-0.7	-0.4%	2	-4	0.8
COc1ccc(-c2ccc(CN3C(C(C)C)C(=O)N(Cc4cn(CC5CCCCC5)nn4)CCS3(=O)=O)cc2)cc1OC (stereo not given)	-6	-0.5	-1.2%	-5	-5	-2.9
COc1cccc(/C=N/NC(=O)c2cc(-c3cccn3C)n[nH]2)c1	-5	-1.1	-3.5%	u	0	-0.8
Cc1ccc(CONC(=O)c2cccc(C)c2)cc1	-11	-0.2	-1.5%	6	-5	-2.7
NC(=O)c1ccc(Nc2nc(C(N)COCc3ccccc3)cs2)cc1 (stereo not given)	x	-0.2	-0.5%	-24	-9	-3.4
COc1cccc(C(O)c2nc3ccccc3n2C(C)C)c1OC (stereo not given)	9	0.7	0.3%	-3	-2	-4.7
COc1ccc(CSc2nc3ccccc3c(=O)[nH]2)cc1F	-3	3.0	2.6%	-4	0	-2.6
Cc1cc(C)c(C#N)c(Oc2ccc(F)cc2)n1	-10	0.0	3.6%	-1	0	-4.7
Cc1cc(C)cc(-c2nnc(SCC(=O)Nc3cc(C)on3)o2)c1	16	1.5	-2.8%	u	-11	-0.2
Cc1ccc(-c2csc(/C(C#N)=C(\O)CN3CCN(C(=O)c4ccco4)CC3)n2)cc1	7	-1.5	0.6%	-8	-13	-3.1
CN(c1ccccc1)S(=O)(=O)c1cccc(NC(=O)CCN2C(=O)C3CCCCC3C2=O)c1 (stereo not given)	1	0.3	4.1%	8	-2	1.5
CC(C)OCCCNC(=O)c1ccc(NC(=O)C2CCCO2)cc1 (stereo not given)	17	-0.2	1.7%	-4	3	3.1
CC(C)CN1CCN(Cc2cccc3nccnc23)CC1CCO (stereo not given)	9	1.5	0.1%	9	-15	-3.4
COc1ccc(NC(=O)c2nnn(Cc3cccc(F)c3)c2N)c(OC)c1	15	1.2	13%	1	1	7.3
Cc1ccsc1/C=N/NC(=O)CN1CCN(Cc2ccccc2)CC1	18	8.9	0.9%	-12	-6	-1.3
CC(=O)Nc1cccc(Oc2nc(NC(C)C)nc3cc(-c4ccccc4)sc23)c1	22	0.3	u	-1	-2	1.1
CCOC(=O)C1=C(c2ccccc2)Nc2ncnn2C1c1ccc(C(=O)O)cc1 (stereo not given)	5	0.7	1.3%	6	1	-0.5
CCN1C(=O)C2(C(C(=O)c3cc4ccccc4o3)=C(O)C(=O)N2CCCN2CCOCC2)c2ccccc21 (stereo not given)	0	-0.7	-1.3%	4	-13	-2.6
c1ccc(-c2nnnn2-c2ccccn2)cc1	15	1.2	3.4%	8	-5	3.2
N#Cc1ccc(S(=O)(=O)NC2CC2)cc1	1	-0.6	0.7%	26	-1	-1.3
C[C@@H]1CN(Cc2nc(Cc3ccccc3F)no2)C[C@H](C)O1	-2	-1.1	-0.1%	5	-7	-2.3
Cc1cccc2cc(CN(Cc3cccnc3)C(=S)NCCCN(C)C)c(=O)[nH]c12	-12	-0.3	0.2%	-3	-7	-1.4
CN(c1ccc(C(=O)NC2CCCCC2)cc1)S(=O)(=O)c1ccccc1	-6	0.1	-0.2%	4	-15	0.3
COc1ccc(-c2cc3nc(C)n(N)c(=O)c3s2)cc1	-6	-0.8	-0.2%	1	-19	-1.6
O=c1[nH]c2cc(Cl)cc(Cl)c2[nH]c1=O	9	0.4	-4.5%[38.3 µM]	u	23	-0.9
O=C(CCNC(=O)c1ccc(Br)cc1)NCc1cccnc1	17	0.1	-4.8%	2	-5	-1.9
COc1ccc(NC(=O)CN(C)S(=O)(=O)c2ccc3c(c2)CCCN3C(C)=O)cc1	-20&-13	-0.1&0.7	0.5%&3.1%	-1	-3	4.3
Cc1noc(C)c1COc1ccccc1C(=O)N(C)Cc1ccco1	7	1.4	-1.1%	-5	-9	1.7
O=C(c1ccc(Oc2cc(Cl)cc(Cl)c2)o1)N1CCCCC1	20	-0.8	13%	-1	-17	-4.4
CC(C)c1nnc(NC(=O)CCC(=O)NC2CCCc3ccccc32)s1 (stereo not given)	u	0.7	0.0%	2	-12	-1.9
CC(O)CNCCNCc1c(OCc2ccccc2)ccc2ccccc12 (stereo not given)	2	-0.1	-2.4%[38.3 µM]	18	-28	-1.7
